# GIRK2 activ – opens human GIRK2 potassium channels; calls only for hits at 25 µM; 63,000 tested, 0.05% active; P48051; HEK293-GIRK2 thallium flux, Thallos fluorescence;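 active = among the strongest 0.2% of first-round signals and kept after retests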;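 also: first round at about 10 µM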
# Target sequence (P48051 whole entry, looked up): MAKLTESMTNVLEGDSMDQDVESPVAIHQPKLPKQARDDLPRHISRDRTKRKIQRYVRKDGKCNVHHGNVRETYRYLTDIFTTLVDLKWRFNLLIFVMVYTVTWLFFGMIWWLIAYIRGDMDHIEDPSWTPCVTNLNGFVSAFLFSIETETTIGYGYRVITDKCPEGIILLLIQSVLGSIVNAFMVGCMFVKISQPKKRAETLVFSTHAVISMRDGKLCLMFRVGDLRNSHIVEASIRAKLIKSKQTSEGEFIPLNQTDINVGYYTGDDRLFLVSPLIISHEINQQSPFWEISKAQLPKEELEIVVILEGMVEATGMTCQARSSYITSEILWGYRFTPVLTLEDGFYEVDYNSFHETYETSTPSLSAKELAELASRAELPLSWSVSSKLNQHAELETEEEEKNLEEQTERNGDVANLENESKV
# Calls only; i = inactive. Not all compounds are listed; rates above refer to the full screens.
# Preview (19 entries):
SMILES,GIRK2 activ
Cc1noc(-c2ccnc(SCC(=O)Nc3ccc4c(c3)OCCO4)c2)n1,i
Cc1ccc2c(Nc3ccc(Cl)cc3)c(C(=O)N3CCCCC3)cnc2n1,i
CCOc1ccc(-c2noc(CSc3nc4cc5c(cc4c(=O)n3C3CC3)OCO5)n2)cc1OC,i
Cc1cc(C(F)(F)F)nc(CCNC(=O)c2cc(=O)c3ccccc3o2)n1,i
CSc1ccccc1C(=O)NCc1cc(-c2cccs2)n(C2CCCC2)n1,i
COc1cccc(C2C(=C(O)c3ccc(F)cc3)C(=O)C(=O)N2c2cc(C)on2)c1OC (centres undefined),i
Fc1ccccc1/C=C/c1nn2c(-c3cccnc3)nnc2s1,i
CCc1cc(-c2n[nH]c(C(=O)O)c2-c2nc(C)cs2)c(O)cc1O,i
O=C(O)c1cccc(C(=O)O)c1Cl,i
COc1ccc(S(=O)(=O)NCC(c2ccsc2)N2CCCCCC2)cc1OC (centres undefined),i
Cc1ccc(-n2nnc(C(=O)NC3CCCCC3)c2-c2ccncc2)cc1C,i
Cn1cc(OCc2ccc(F)cc2)c(=O)cc1C(=O)N1CCN(c2ccccc2)CC1,i
Cc1cc(C)c2sc(NC(=O)Nc3cccs3)nc2c1,i
c1cc(N2CCOCC2)ncc1-c1noc(CN2CCCC2)n1,i
Cc1ccc2c(c1)c1ncn(Cc3nc(C4CC4)no3)c(=O)c1n2CC(=O)N1CCCCC1,i
CC(C)(C)c1ccc(NC(=O)NC2CC(=O)N(C3CC3)C2)cc1 (centres undefined),i
CCCCCC(O)/C=C/[C@H]1CCC(=O)C1C/C=C\CCCC(=O)O (some centres undefined),i
O=C(CCCSc1ccccc1)N(Cc1ccncc1)c1nc2c(F)cccc2s1,i
COc1ccc(N(C)S(=O)(=O)c2ccsc2-c2nc(-c3cccc(F)c3)no2)cc1OC,i

# Results, repeating the preview:
SMILES,GIRK2 activ
Cc1noc(-c2ccnc(SCC(=O)Nc3ccc4c(c3)OCCO4)c2)n1,i
Cc1ccc2c(Nc3ccc(Cl)cc3)c(C(=O)N3CCCCC3)cnc2n1,i
CCOc1ccc(-c2noc(CSc3nc4cc5c(cc4c(=O)n3C3CC3)OCO5)n2)cc1OC,i
Cc1cc(C(F)(F)F)nc(CCNC(=O)c2cc(=O)c3ccccc3o2)n1,i
CSc1ccccc1C(=O)NCc1cc(-c2cccs2)n(C2CCCC2)n1,i
COc1cccc(C2C(=C(O)c3ccc(F)cc3)C(=O)C(=O)N2c2cc(C)on2)c1OC (centres undefined),i
Fc1ccccc1/C=C/c1nn2c(-c3cccnc3)nnc2s1,i
CCc1cc(-c2n[nH]c(C(=O)O)c2-c2nc(C)cs2)c(O)cc1O,i
O=C(O)c1cccc(C(=O)O)c1Cl,i
COc1ccc(S(=O)(=O)NCC(c2ccsc2)N2CCCCCC2)cc1OC (centres undefined),i
Cc1ccc(-n2nnc(C(=O)NC3CCCCC3)c2-c2ccncc2)cc1C,i
Cn1cc(OCc2ccc(F)cc2)c(=O)cc1C(=O)N1CCN(c2ccccc2)CC1,i
Cc1cc(C)c2sc(NC(=O)Nc3cccs3)nc2c1,i
c1cc(N2CCOCC2)ncc1-c1noc(CN2CCCC2)n1,i
Cc1ccc2c(c1)c1ncn(Cc3nc(C4CC4)no3)c(=O)c1n2CC(=O)N1CCCCC1,i
CC(C)(C)c1ccc(NC(=O)NC2CC(=O)N(C3CC3)C2)cc1 (centres undefined),i
CCCCCC(O)/C=C/[C@H]1CCC(=O)C1C/C=C\CCCC(=O)O (some centres undefined),i
O=C(CCCSc1ccccc1)N(Cc1ccncc1)c1nc2c(F)cccc2s1,i
COc1ccc(N(C)S(=O)(=O)c2ccsc2-c2nc(-c3cccc(F)c3)no2)cc1OC,i
N#C/C(=C\c1ccccc1F)c1nc2ccccc2o1,i
Cc1cccc(S(=O)(=O)Nc2ccc3c(c2)N(C(=O)c2ccccc2)CCC3)c1,i
COc1ccc2ncc(C#N)c(N3CCC(C(=O)NCc4ccc(C)cc4)CC3)c2c1,i
COc1ccc(Nc2c(C(=O)N3CCOCC3)cnc3nc(C)ccc23)cc1OC,i
COc1ccc(S(=O)(=O)NCc2ccccc2)cc1N(C)S(=O)(=O)c1ccc(Cl)cc1,i
Cc1cccc(-n2nnnc2SC(C)C(=O)Nc2ccc3nccnc3c2)c1 (centres undefined),i
O=C(Nc1nc2c(F)cccc2s1)C1CCN(S(=O)(=O)c2ccc(F)cc2)CC1,i
CCOc1ccccc1N1CCN(c2ncc3c(=O)n(C4CCCC4)c(=O)[nH]c3n2)CC1,i
O=C(NCCCS(=O)(=O)N1CCc2ccccc2C1)c1ccc(F)cc1F,i
COc1ccccc1C(=O)Oc1ccc2c(=O)c(-c3ccccc3OC)c(C)oc2c1,i
Cc1cc(C(=O)Nc2nc(C(=O)N3CCN(c4cc(Cl)ccc4C)CC3)co2)no1,i
CCOc1ccc(CNC(=O)c2nnn(-c3ccc(Cl)cc3)c2-c2cccnc2)cc1OCC,i
Cc1ccc(Cn2nnc(-c3noc(-c4cccs4)n3)c2C)cc1,i
COc1nn(C)cc1C(=O)Nc1ccc(C(=O)Nc2nc3ccc(Cl)cc3s2)cc1,i
COc1cc(-c2noc(-c3nn(-c4ccccc4)ccc3=O)n2)cc(OC)c1OC,i
Cc1ccc(NC(=O)Cn2cnc3c(oc4ccccc43)c2=O)cc1C,i
COCCN(Cc1ccsc1)C(=O)Cc1ccc(SC(C)C)cc1,i
O=C(NCC1(c2ccc(F)cc2)CC1)C(=O)Nc1ccc2c(c1)OCCO2,i
CCCCc1ccc(-n2nnc(C(=O)Nc3cc(C)on3)c2C)cc1,i
CCOC(=O)COc1ccccc1C1=NN(C(C)=O)C(c2ccc(CC)cc2)C1 (centres undefined),i
O=C(CCc1csc(NC(=O)c2ccc(F)cc2)n1)NCc1ccco1,i
COc1ccc(C2CCN(C(=O)c3snnc3C)C2)cc1 (centres undefined),i
COc1cc(S(=O)(=O)NCc2cccnc2)ccc1Cl,i
Cc1cc(C)c2sc(N(Cc3ccco3)C(=O)c3cc(C)no3)nc2c1,i
O=C(Cn1cncn1)Nc1cc(N2CCOCC2)ncn1,i
COCCn1c(-c2ccc(OC)cc2)c[nH]c1=S,i
CCCC1Oc2ccccc2C(=O)N(CC(=O)c2cc(C)ccc2OC)C1=O (centres undefined),i
CCN(CC)CCNc1nc2c(c(=O)[nH]c(=O)n2C)n1CC(C)O (centres undefined),i
Cc1ccc(NC(=O)Cn2cc(-c3ccccc3)c3ncn(C(C)C)c(=O)c32)cc1C,i
O=C(Cn1c(=O)oc2ccccc21)N1CCCC(c2nnc(-c3ccccc3F)s2)C1 (centres undefined),i
O=C(Cn1cnc2c(sc3ccccc32)c1=O)NCc1ccccc1,i
COc1cc(Nc2c(C(=O)N3CCSCC3)cnc3nc(C)ccc23)cc(OC)c1OC,i
CCOC(=O)Cn1c(=O)c2c(nc3n(-c4ccc(C)cc4)c(-c4ccccc4)cn23)n(C)c1=O,i
N#Cc1nc(-c2ccc(S(=O)(=O)N3CCOCC3)cc2)oc1NCc1ccco1,i
COc1ccc(NC(=O)Nc2nc(CCC(=O)NC(C)C)cs2)cc1,i
COC(=O)c1ccc(-n2c(C)nc3ccc(OC)cc3c2=O)cc1,i
COc1cccc(N2CC(c3nc4ccccc4n3Cc3ccccc3C)CC2=O)c1 (centres undefined),i
CCOc1ccc(C(=O)Nc2sc3c(c2-c2nc4ccccc4s2)CCN(C(C)=O)C3)cc1,i
O=S(=O)(c1cccnc1)N(Cc1ccsc1)Cc1ccco1,i
COc1ccccc1N1CC(C)Cn2c1nc1c2c(=O)n(CC(=O)OCc2ccccc2)c(=O)n1C (centres undefined),i
CC(Cc1ccco1)NS(=O)(=O)c1ccc(F)cc1 (centres undefined),i
# Later entries.
SMILES,GIRK2 activ
Cc1nnsc1C(=O)NC(C)Cc1cccs1 (centres undefined),i
COc1ccccc1N1CCN(CCNC(=O)C(=O)NCc2ccccc2Cl)CC1,i
CC(=O)N(O)CCCCCNC(=O)CC(O)(CC(=O)NCCCCCN(O)C(C)=O)C(=O)O,i
Cn1cc(C2=C(c3c4n(c5ccccc35)CC(CN)C4)C(=O)NC2=O)c2ccccc21 (centres undefined),i
Cc1ccc(S(=O)(=O)NCCC(O)c2cccc3ccccc23)cc1C (centres undefined),i
Cc1ccc2[nH]c(C(=O)N3CCc4ccccc4C3)c(NC(=O)c3ccc(F)cc3)c2c1,i
Cc1cccc(NC(=O)Cn2c(C)cc(C)c(S(=O)(=O)c3ccccc3)c2=O)c1,i
Cc1c(-c2nc(-c3ccccc3Cl)no2)nnn1-c1ccccc1F,i
O=C(N1C2CCC1COC2)C12CC3CC(CC(C3)C1)C2,i
Cc1noc(C2CN(C(=O)NCc3cccc4ccccc34)C2)n1,i
COc1nn(C)cc1C(=O)Nc1ccc(C(=O)NCCC2=CCCCC2)cc1,i
COc1ccc(NC(=O)CC2SC(N=Nc3c(O)[nH]c4ccccc34)=NC2=O)cc1 (centres undefined),i
Cc1ccc(Cn2nnc3c(=O)n(Cc4nc(-c5ccc(OC(F)(F)F)cc5)no4)cnc32)cc1,i
O=C(CCN1C(=O)S/C(=C/c2ccc(Cl)cc2)C1=O)Nc1ccc(C(=O)O)c(O)c1,i
COc1ccccc1/C=C1\Oc2cc(OCC(=O)O)ccc2C1=O,i
CNC(=O)CCc1csc(NC(=O)Nc2ccc(OC)cc2)n1,i
Cc1ccc(NC(=O)c2cn(C)nc2S(=O)(=O)N2CCN(c3ccc(Cl)cc3)CC2)cc1C,i
O=C1CCCC2=C1C(c1cccc(F)c1)n1ncnc1N2 (centres undefined),i
O=C(c1cccc([N+](=O)[O-])c1)N1CCN(c2nnnn2-c2ccccc2)CC1,i
O=C(Nc1cnc(N2CCN(c3ccccc3)CC2)nc1)C(c1ccccc1)c1ccccc1,i
CCc1noc(C2CC(=O)N(Cc3ccco3)C2)n1 (centres undefined),i
Cc1cc(C(=O)N2CCN(C(=O)C3CC3c3cccs3)CC2)no1 (centres undefined),i
CCOC(=O)c1c(NCc2ccc3c(c2)OCO3)c2cccc(C)c2[nH]c1=O,i
Cc1c(C(=O)N2CCC(c3nnc(-c4ccco4)o3)CC2)cnn1-c1ccccc1,i
CC(C)(C)N(C(=O)c1ccc(Br)o1)C(=O)N1CCCCC1,i
Cc1nc(OCC(=O)NCCc2ccc(S(N)(=O)=O)cc2)cc(-n2cccn2)n1,i
N#Cc1ccc(OC2CCN(C(=O)Cc3cccs3)CC2)nc1,i
Cc1ccnc(Nc2cc(N3CCN(S(=O)(=O)c4ccccc4F)CC3)nc(C)n2)c1,i
COc1cc(NC(=O)c2nnn(Cc3nc(-c4cccc(OC)c4OC)oc3C)c2N)cc(OC)c1,i
O=C(Cn1ncccc1=O)NCCOc1ccc(-c2ccc(F)cc2)nn1,i
Cc1ccc(NC(=O)c2nnn(Cc3ccc(Cl)cc3)c2-n2cccc2)c(F)c1,i
COc1ccc(-c2coc3c4c(ccc3c2=O)OCN(C2CC(C)(C)NC(C)(C)C2)C4)cc1,i
COc1ccc(NC(=O)c2ccc3nn(CC(=O)Nc4cccc(OC)c4)c(=O)n3c2)cc1,i
COc1cccc(N2CC(NC(=O)c3ccccc3C(F)(F)F)CC2=O)c1 (centres undefined),i
O=C(NCCCc1ccccc1)c1ccc2c(=O)nc3c(-c4ccccc4)n[nH]n3c2c1,i
O=C(Nc1sc2c(c1CN1CCCC1)CCCC2)c1ccccc1F,i
CCOc1ccc(N(C)S(=O)(=O)c2ccsc2C(=O)NCc2ccc(F)cc2F)cc1,i
CCOc1ccc(CC(=O)N2CCN(c3ccc(NC(=O)c4ccccc4)nn3)CC2)cc1,i
CC(C)NC(=O)c1ccc(Cn2c(SCC(N)=O)nc3cc4c(cc3c2=O)OCO4)cc1,i
O=S(=O)(c1ccc(Br)cc1)N(CCc1cccs1)Cc1ccco1,i
O=C(Nc1cnoc1)c1ccc2c(c1)OCO2,i
O=C(Nc1nc(CCC(=O)N2CCN(c3ccccc3)CC2)cs1)c1ccco1,i
O=C(CCCSc1ccccc1)Nc1ccccc1-c1nc2ccccc2[nH]1,i
Cc1c(/C=C/C(=O)c2cccs2)cnn1C,i
Cc1c(C)n2c3c(=O)n(C)c(=O)n(C)c3nc2n1CCCNc1ccc(Cl)cc1,i
O=C(c1ccc(-n2cccc2)cc1)N1CCN(CC(O)C2CC2)CC1 (centres undefined),i
COc1ccc(CCNC(=O)c2ccc(CNS(=O)(=O)c3cccc(Cl)c3)cc2)cc1OC,i
N#CCSc1nc2ccc(N3CCCCC3)cc2c(=O)n1Cc1ccccc1,i
CC(CCc1ccccc1)NC(=O)c1nnn(-c2ccc(Cl)cc2)c1-c1cccnc1 (centres undefined),i
COc1ccc(S(=O)(=O)Nc2ccncc2)cc1N(C)S(=O)(=O)c1ccccc1,i
N#Cc1ccc(COCC2CCN(Cc3ccc(Br)cc3)CC2)cc1,i
COc1ccc(S(=O)(=O)NCCC(C)C)cc1N(C)S(=O)(=O)c1ccc(Cl)cc1,i
Cc1cc(C)c(NC(=O)Cn2nnc(-c3nc(-c4ccc(F)cc4)no3)c2N)c(C)c1,i
COc1ccc(-n2nnc(C(=O)OCc3ccccc3F)c2C)cc1,i
O=C(NCc1cccs1)C1CCCN(c2ccc(-c3ccccc3)nn2)C1 (centres undefined),i
Cn1nc(CNC(=O)Nc2cccc(C(F)(F)F)c2)cc1-c1cccs1,i
COc1ccc(Cl)cc1C(=O)Nc1cc(C)nn1CCO,i
COc1ccc(OC)c(-c2cc3ccc(OCC(C)=O)cc3oc2=O)c1,i
Cc1cc(N)nc(Nc2cccc(C(C)O)c2)n1 (centres undefined),i
CCOC(=O)C1C(c2ccc(O)cc2)NC(=S)NC1(O)C(F)(F)F (centres undefined),i
# Other compounds
SMILES,GIRK2 activ
N#Cc1nc(-c2ccccc2)oc1N1CCN(C(=O)c2cccs2)CC1,i
O=C(/C=C/c1ccc2ccccc2n1)c1cccc(O)c1,i
CCc1ccc(S(=O)(=O)Nc2ccc3c(c2)N(C(=O)c2ccccc2)CCC3)cc1,i
COc1ccc(NC(=O)c2c(O)c3sccc3n(C)c2=O)cc1,i
CN(C)S(=O)(=O)c1ccc(-c2nc(C#N)c(N3CCCC3)o2)cc1,i
Cn1ccc(C(=O)N=c2sc3cc4c(cc3n2C)OCO4)n1,i
C=CCn1c(=O)c2c(nc3n(-c4ccccc4F)c(C)cn23)n(C)c1=O,i
Cc1cc(CCNC(=O)c2cc3ccccc3s2)on1,i
O=C(Nc1nccs1)c1ccc(Cl)c(S(=O)(=O)N2CCOCC2)c1,i

# Screens from PubChem BioAssay.
